VACV Venus inh: inhibitors of vaccinia virus (Venus reporter) | Potency, µM (titrated, usually from 36.5 µM), inactives show top-dose activity change, negative = inhibition, usual class: inhibitors | 330,000 tested, 0.46% active | AID 720580 | Vaccinia virus Venus reporter expression, fluorescence; active means well fitted inhibition curve with a large enough effect; inconclusive means small, poorly fitted or top-dose-only effect; inactive means no such curve, though single readings can be large or run the other way; tested in A549 cells; further: nearly all actives have a fitted effect of over 30% in size; inactives centre near -10
VACV mCherry inh: inhibitors of vaccinia virus infection (mCherry reporter signal) | Vaccinia virus mCherry reporter infection, fluorescence; about a quarter of the inactives have no number | Potency, µM (top dose mostly 36.5 µM), for inactives: at the top dose activity change, negative = inhibition, actives largely listed as inhibitors | 310,000 tested, 0.63% active | AID 720579; active = well fitted inhibition curve with a large enough effect; inconclusive = small, poorly fitted or top-dose-only effect; inactive = no such curve, though single readings can be large or run the other way; tested in A549 cells; further: nearly all actives have a fitted effect of over 35% in size; inactives centre near -10
Numbers without * were called inactive; i = inactive; ? = inconclusive; nt = not tested or not shown; [ ] = remark or other dose. On the % scale 0 is the no-effect control and ±100 the full control effect; potency means the concentration at half of the fitted maximal effect.

SMILES	VACV Venus inh	VACV mCherry inh
COc1cc(F)ccc1CN1CCC(n2nccc2NC(=O)C2CCOC2)CC1 (stereo not given)	-8%	-10%
Cc1c(NP(=O)(Oc2ccccc2F)Oc2ccccc2F)c(=O)n(-c2ccccc2)n1C	7%	?
CCC(C)NC(=O)c1c(C)oc2nc(C)nc(N3CCOCC3)c12 (stereo not given)	-9%	-9%
CSc1nc2c(c(=O)[nH]1)C(c1cccc(Cl)c1Cl)CC(=O)N2 (stereo not given)	-5%	-6%
CCCCSc1nc2c(cc1C#N)CCC2	-1%	i
Nn1c(-c2ccccn2)nnc1-c1ccccn1	-9%	-10%
O=c1c2ccccc2nc(SCc2nnc(-c3ccccc3)o2)n1-c1ccc(F)cc1F	?	nt
Cc1cc(Br)cn2c(Cc3ccccc3)c(-c3cccc(Cl)c3)nc12	-14%	4%
CCC(C)Nc1ccc(NC(C)CC)cc1 (stereo not given)	?	?
CCN(CC)CCNC(=O)c1ccc(NC(=O)c2ccccc2-c2ccc(C(F)(F)F)cc2)cc1	-20%	-29%
C/C(=N\NC(=O)c1cccnc1)c1ccc(OC2OCCOC2Oc2ccc(/C(C)=N/NC(=O)c3cccnc3)cc2)cc1 (stereo not given)	-10%	-3%
CCOC(=O)N1CCN(Cc2ccc3c(c2)CN(C(=O)c2cccc(-n4cccn4)c2)CCO3)CC1	-3%	-6%
NC(=O)c1ncn([C@@H]2O[C@H](CNS(=O)(=O)c3cc4ccccc4s3)[C@@H](O)[C@H]2O)n1	-10%	i
O=C(c1cccc(Br)c1)N1CCN(Cc2cc(=O)n3nc(-c4ccccc4)sc3n2)CC1	-5%	-8%
CCCCn1c(N)c(N(CCOC)C(=O)C2CCN(c3ncnc4sc(C)c(C)c34)CC2)c(=O)[nH]c1=O	2%	-14%
COC(=O)c1cc(OC)c(OC)cc1NC(=O)c1ccc2c(c1)CCN2S(=O)(=O)c1ccccc1	-12%	-17%
Cc1ccc(-n2c(=O)c3ccc(C(=O)NCc4ccco4)cc3n(CC(=O)Nc3ccccc3C(F)(F)F)c2=O)cc1	-5%	-1%
Cc1noc(C)c1C(=O)Nc1nnc(CC(C)C)s1	14%	i
O=C(COc1ccc(-c2ccccc2)cc1)N/N=C/c1cc(O)ccc1Br	?	-12%
COc1cccc(NC(=S)NN2C(C)CCCC2C)c1 (stereo not given)	-9%	-12%

Grouped by structure, the compounds so far containing a thiophene ring, fused or not.
SMILES	VACV Venus inh	VACV mCherry inh
NC(=O)c1ncn([C@@H]2O[C@H](CNS(=O)(=O)c3cc4ccccc4s3)[C@@H](O)[C@H]2O)n1	-10%	i
CCCCn1c(N)c(N(CCOC)C(=O)C2CCN(c3ncnc4sc(C)c(C)c34)CC2)c(=O)[nH]c1=O	2%	-14%

The results go on:
SMILES	VACV Venus inh	VACV mCherry inh
CCOC(=O)CCCCCC(=O)Nc1ccc2c(c1)CC(=O)N([C@H](C)CO)C[C@@H](C)[C@H](CN(C)Cc1ccc3c(c1)OCO3)O2	-20%	i
CCOC(=O)C1=C(C)OC(N)=C(C#N)C1c1cc2cc(C)ccc2nc1N1CCCCC1 (stereo not given)	-11%	i
Cc1ccc(OCCNC(=O)c2ccc3ccccc3n2)cc1	-12%	-14%
CC/C(=N\NC(=O)c1cc(C)oc1C)c1ccc(OC(F)F)cc1	?	?
CCN(CC)C(=O)c1c(-c2ccccc2)oc2ccc(O)cc12	-13%	-13%
CC[N+](CC)(CC)c1ccc(/C=C/c2ccnc3ccccc23)cc1	i	nt
COC(=O)c1sccc1NC(=S)N1CCN(c2cccc(C)c2C)CC1	-15%	-29%
O=C(OCCC1Oc2cccnc2NC1=O)c1ccc(F)cc1 (stereo not given)	-20%	-10%
CCOC(=O)c1c(NC(=O)C(C)NCc2ccco2)sc2c1CCC(C)C2 (stereo not given)	-23%	-27%
CC(C)OC(=O)CC(=O)CSc1nc2c(c(-c3cccs3)c1C#N)CCC2	-17%	i
N#Cc1ccccc1NC(=O)c1cc(=O)c2ccccc2o1	3%	6%
ONC(=Nc1ccccc1)C(=Nc1ccccc1)NO	-15%	nt
COc1cc(OCc2ccccc2)c(CC(=O)O)c([N+](=O)[O-])c1	-13%	-14%
CC(=O)Nc1cccc(NC(=O)CSc2nnc(Cc3cccn3C)n2-c2ccc(C)cc2)c1	-10%	-10%
CCOC(=O)c1ccc(NNC(=O)CC)c([N+](=O)[O-])c1	-16%	?
CCn1cc(C(=O)NCCCOC)c(=O)c2cc(S(=O)(=O)N3CCCC3)ccc21	-1%	i
O=[N+]([O-])c1nn(-c2ccccc2)n(O)c1=NC1CCN(Cc2ccccc2)CC1	?	?
Cc1cnc(-n2ncc(C(=O)N(C)CCc3ccccn3)c2-c2cccs2)nc1-c1ccc(F)cc1	-5%	-17%
CS(=O)(=O)Nc1ccccc1C(=O)Nc1cc2c(cc1C(=O)O)OCCCO2	-14%	-17%
Cc1[nH]c2ccccc2c1/C=N/NC(=O)CNC(=O)c1ccc2c(c1)OCO2	-13%	-19%

Molecules listed so far that contain two or more sulfur atoms, in the order listed:
SMILES	VACV Venus inh	VACV mCherry inh
NC(=O)c1ncn([C@@H]2O[C@H](CNS(=O)(=O)c3cc4ccccc4s3)[C@@H](O)[C@H]2O)n1	-10%	i
COC(=O)c1sccc1NC(=S)N1CCN(c2cccc(C)c2C)CC1	-15%	-29%
CC(C)OC(=O)CC(=O)CSc1nc2c(c(-c3cccs3)c1C#N)CCC2	-17%	i

Next section:
SMILES	VACV Venus inh	VACV mCherry inh
CCC(=O)N1CCc2cc(Br)cc(S(=O)(=O)N3CCCC(C(=O)NC(C)(C)C)C3)c21 (stereo not given)	-19%	-6%
CC(C)(C)OC(=O)N1CCC(c2c(C(=O)NCCN3CCOCC3)cnn2-c2cccc(Cl)c2)CC1	-3%	-14%
Cc1cccc2sc(NC(=O)c3ccc(NS(=O)(=O)c4cccs4)cc3)nc12	-17%	-4%
O=C(NCCc1ccccc1)C1CCN(Cc2cc3ccccc3n2Cc2ccccc2)CC1	-20%	-23%
CC(C)[C@H](NC(=O)c1cccc(S(=O)(=O)N2CCOCC2)c1)C(=O)Nc1nc2ccccc2s1	-27%	-2%
c1ccc(CCc2ccccc2-c2nc(-c3cccnc3)no2)cc1	-13%	nt
CC(C)NC(=O)C1C(c2ccc(C(F)(F)F)cc2)=Nc2ccccc2N1C(=O)c1cc2ccccc2[nH]1 (stereo not given)	-9%	-8%
CCOc1ccc(OCC)c(NC(=O)C2CCN(S(=O)(=O)c3cnc[nH]3)CC2)c1	8%	-3%
Cc1ccccc1C(=O)NCC(=O)NNC(=S)NC(=O)c1ccccc1C	-5%	-9%
Cc1c(Cl)cccc1NC(=S)Nc1ccc(S(=O)(=O)Nc2ncccn2)cc1	1%	i

Four entries from above, as labelled records:
> Cc1ccccc1C(=O)NCC(=O)NNC(=S)NC(=O)c1ccccc1C
  VACV Venus inh: -5% | VACV mCherry inh: -9%
> Cc1cccc2sc(NC(=O)c3ccc(NS(=O)(=O)c4cccs4)cc3)nc12
  VACV Venus inh: -17% | VACV mCherry inh: -4%
> CCC(=O)N1CCc2cc(Br)cc(S(=O)(=O)N3CCCC(C(=O)NC(C)(C)C)C3)c21 (stereo not given)
  VACV Venus inh: -19% | VACV mCherry inh: -6%
> CC(C)(C)OC(=O)N1CCC(c2c(C(=O)NCCN3CCOCC3)cnn2-c2cccc(Cl)c2)CC1
  VACV Venus inh: -3% | VACV mCherry inh: -14%

Going on with the list.
SMILES	VACV Venus inh	VACV mCherry inh
O=C(Cn1cnc2scc(-c3ccc(F)cc3)c2c1=O)N1CCOCC1	-24%	-24%
CN(C)CCNC(=S)Nc1ccccc1Cl	-1%	-4%
COc1ccc(CCN(C)C2CCCN(C(=O)c3sccc3C)C2)cc1OC (stereo not given)	-18%	-4%
CCOC(=O)C1=C(c2ccc(OC)cc2)C(=O)c2ccccc2C1=O	-19%	-20%
C=CCC1(CC=C)CCCN1C(=O)C1CCC(=O)N(Cc2ccc(Cl)cc2)C1 (stereo not given)	?	-18%
Cc1ccc(S(=O)(=O)NCCSc2nnnn2-c2cc(C)ccc2C)cc1	?	-21%
Cc1ccc2cccc(NC(=O)c3ccc(-c4cccc(Cl)c4)o3)c2n1	-6%	-8%
Cc1ccc2nc(-c3cccc(Br)c3)cc(C(=O)NC3=NCCS3)c2c1	-18%	-7%
O=C(NCc1ccc2c(c1)OCO2)c1cc(F)c(F)cc1Cl	-11%	-16%
Cn1cnc2cc(NCc3ccccc3Cl)ccc21	-9%	?
O=C(CCCN1C(=O)c2cccc3cccc(c23)C1=O)N1CCN(c2ccccn2)CC1	-8%	-21%
Cc1cccc2sc(NC(=O)Cn3cccc3)nc12	-12%	i
OCCN1CCN(C(=S)NC2CCCC2)CC1	-12%	i
Cc1cc(-n2c(C)nc3ccccc3c2=O)ccc1NC(=O)C(F)(F)F	-6%	i
CN1CCN(CC(=O)Nc2nc(-c3ccccc3)cs2)CC1	-7%	-18%
CCCCNC(=O)/C(C#N)=c1\s/c(=C\c2ccccc2OC(F)F)c(=O)n1CCCOC	3%	-6%
CCOC(=O)c1sc(NC(=O)c2ccncc2)nc1C	-4%	nt
Cc1nn(Cc2ccccc2)c(C)c1NC(=O)c1cc(C(C)C)on1	-8%	-11%
N#Cc1cccc(NC(=O)COC(=O)c2cc(S(=O)(=O)Nc3ccccc3Cl)ccc2O)c1	-16%	-13%
CCN(CC)C(=O)c1ccc2c(c1)C1C=CCC1C(C(=O)O)N2 (stereo not given)	17%	25%

An excerpt of these results, with each value named.
> O=C(CCCN1C(=O)c2cccc3cccc(c23)C1=O)N1CCN(c2ccccn2)CC1
  VACV Venus inh = -8%
  VACV mCherry inh = -21%
> N#Cc1cccc(NC(=O)COC(=O)c2cc(S(=O)(=O)Nc3ccccc3Cl)ccc2O)c1
  VACV Venus inh = -16%
  VACV mCherry inh = -13%
> CCN(CC)C(=O)c1ccc2c(c1)C1C=CCC1C(C(=O)O)N2 (stereo not given)
  VACV Venus inh = 17%
  VACV mCherry inh = 25%
> CCOC(=O)c1sc(NC(=O)c2ccncc2)nc1C
  VACV Venus inh = -4%
  VACV mCherry inh = nt

(continued)
SMILES	VACV Venus inh	VACV mCherry inh
CC(C)[C@H](NC(=O)c1ccco1)C(=O)Nc1ccc(N2CCCCCC2)cc1	-7%	-14%
O=C(NC1CCCCC1)C(c1ccncc1)N(Cc1ccc2c(c1)OCO2)C(=O)c1cnsn1 (stereo not given)	-11%	nt
N#CC1(NC(=O)CSc2nc3ncc(Cl)cc3[nH]2)CCCCC1	-4%	-13%
Cc1nc(C)c(C(=O)O)c(-c2ccsc2)c1C(=O)O	-7%[7.34 µM]	i[7.34 µM]
COc1ccccc1NC(=S)N1CCCC1	1%	-3%
C/C(=N/NC(=O)c1ccco1)c1cccc(NC(=O)c2ccc(C)o2)c1	-10%	-18%
Cc1cc(C)cc(NC(=O)CN2C(=O)NC(C)(c3ccccc3)C2=O)c1 (stereo not given)	-24%	nt
CC(=O)Nc1ccc(S(=O)(=O)N[C@@H](C)C(=O)OCC(=O)c2ccc(Br)s2)cc1	-14%	-16%
COc1ccc(S(=O)(=O)N(C)C[C@H]2Oc3ncc(Br)cc3C(=O)N([C@@H](C)CO)C[C@@H]2C)cc1	-17%	-10%
COc1ccc(CN2C(=O)[C@@H]3C(c4ccccc4Cl)=NO[C@@H]3C2=O)cc1	?	?
CCCCS(=O)(=O)N1CCN(C(=N)N[N+](=O)[O-])CC1	-9%	i
O=C(Nc1cccc(-c2cnc3ccccc3n2)c1)c1ccc(Cl)cc1	-4%	-12%
CCOC(=O)c1c(-c2ccccc2)oc2ccc(N(C(C)=O)S(=O)(=O)c3ccc(C)cc3)cc12	-28%	-25%
Oc1ccccc1N1CCN(c2ncccn2)CC1	-11%	-8%
CCOC(=O)c1cn(CC(=O)Nc2ccc(OC)cc2OC)nn1	1%	-3%
COc1cc2c(C(=O)N3CCN(c4ccccc4)CC3)c(C)oc2cc1Br	?	?
COCCn1c(SCC(=O)Nc2ccc3[nH]c(=O)[nH]c3c2)nc2ccccc21	-17%	-7%
CCCOc1ccc(C(=O)NNC(=O)CCNC(=O)c2ccco2)cc1OC	-3%	-11%
COC(=O)c1c(-c2ccc(Cl)cc2)noc1N1CCN(c2cc(C)ccc2C)CC1	-26%	-16%
O=C(NCC(c1cccs1)N1CCOCC1)C1CCN(S(=O)(=O)c2cc(Cl)ccc2Cl)CC1 (stereo not given)	-21%	i

Source: PubChem
